H5N1 CPE: MDCK cell protection from H5N1 avian flu; AID 740; cytopathic effect, luminescence, 72 h; stronger effect = higher value; no value below 0 was filed and about half of the inactive calls have no number; reference of the scale not given here; 0.07% of 96,000 active; inhibition, % at 50 µM; in the data active means inhibition above about 25%
* = called active by the depositor; i = inactive. These rows are one share of the data. The share of hits here may be higher or lower than overall.

The first 17 records, ahead of the listing:
SMILES | H5N1 CPE
COc1ccc(Cc2nnnn2CC(=O)O)cc1 | i
c1ccc(N2N=C(c3cccs3)CC2c2ccco2)cc1 (configuration not stated) | i
O=C(c1cc(F)c(F)cc1Cl)N1CCOCC1 | i
CNC(=O)NC(=O)CSc1cccc(C(F)(F)F)c1 | i
Cc1ccc(-c2cc(C(F)(F)F)n3ncc(C(=O)N4CCN(C)CC4)c3n2)cc1 | 2.8
O=C1NC(c2ccco2)Nc2ccccc21 (configuration not stated) | 0.4
CCOC(=O)c1c(NC(=O)CSc2nc(C)cc(C)c2C#N)sc(C(C)=O)c1C | 0.6
Cc1noc(NS(=O)(=O)c2ccc(N/C=C/C(=O)c3cccnc3)cc2)c1C | 0.1
O=C(Cn1nnc(-c2ccc3c(c2)OCO3)n1)NCc1ccco1 | i
Cc1nnc(SCC(=O)NCc2ccco2)n1Cc1ccccc1 | 3.6
COc1ccc(C2(O)CC3CCC(C2)N3c2nc(C)cc(C)c2C#N)cc1 (configuration not stated) | 0.1
Cc1[nH]nc2c1C(C(C)C)C(C#N)=C(N)O2 (configuration not stated) | 0.7
COc1ccc(-c2cc(C(F)(F)F)nc(NCc3cccnc3)n2)cc1 | 2.8
CCOC(=O)CCCn1ncn2c(cc3occc32)c1=O | 0.9
Cc1ccc(C)c(N2CCN(C(=O)c3cn(C)c4ccc(S(=O)(=O)N(C)C)cc4c3=O)CC2)c1 | i
N#Cc1c(N)nc(SCC(=O)NCc2ccc3c(c2)OCO3)c(C#N)c1-c1cccs1 | 0.2
CC(NC(=O)Cc1ccc(F)cc1)c1ccccc1 (configuration not stated) | 0.1

The whole of this part, from the first entry:
SMILES | H5N1 CPE
COc1ccc(Cc2nnnn2CC(=O)O)cc1 | i
c1ccc(N2N=C(c3cccs3)CC2c2ccco2)cc1 (configuration not stated) | i
O=C(c1cc(F)c(F)cc1Cl)N1CCOCC1 | i
CNC(=O)NC(=O)CSc1cccc(C(F)(F)F)c1 | i
Cc1ccc(-c2cc(C(F)(F)F)n3ncc(C(=O)N4CCN(C)CC4)c3n2)cc1 | 2.8
O=C1NC(c2ccco2)Nc2ccccc21 (configuration not stated) | 0.4
CCOC(=O)c1c(NC(=O)CSc2nc(C)cc(C)c2C#N)sc(C(C)=O)c1C | 0.6
Cc1noc(NS(=O)(=O)c2ccc(N/C=C/C(=O)c3cccnc3)cc2)c1C | 0.1
O=C(Cn1nnc(-c2ccc3c(c2)OCO3)n1)NCc1ccco1 | i
Cc1nnc(SCC(=O)NCc2ccco2)n1Cc1ccccc1 | 3.6
COc1ccc(C2(O)CC3CCC(C2)N3c2nc(C)cc(C)c2C#N)cc1 (configuration not stated) | 0.1
Cc1[nH]nc2c1C(C(C)C)C(C#N)=C(N)O2 (configuration not stated) | 0.7
COc1ccc(-c2cc(C(F)(F)F)nc(NCc3cccnc3)n2)cc1 | 2.8
CCOC(=O)CCCn1ncn2c(cc3occc32)c1=O | 0.9
Cc1ccc(C)c(N2CCN(C(=O)c3cn(C)c4ccc(S(=O)(=O)N(C)C)cc4c3=O)CC2)c1 | i
N#Cc1c(N)nc(SCC(=O)NCc2ccc3c(c2)OCO3)c(C#N)c1-c1cccs1 | 0.2
CC(NC(=O)Cc1ccc(F)cc1)c1ccccc1 (configuration not stated) | 0.1
O=C(CCN1Cc2ccccc2C1)c1ccc2c(c1)OCCO2 | 0.1
Cc1cc2ncn(/N=C/c3cc(Br)ccc3O)c2cc1C | 0.7
CCC1CCCCN1C/C=C/c1ccccc1[N+](=O)[O-] (configuration not stated) | 2.5
COc1cccc(N(C(=O)c2ccn[nH]2)C2(C(=O)Nc3c(C)cccc3C)CCCCC2)c1 | 0.1
O=C(Nc1ccc(Cc2ccncc2)cc1)c1ccc(Cl)c([N+](=O)[O-])c1 | 0.6
CCC(Oc1ccc(C)c(C)c1)C(=O)O (configuration not stated) | 0.6
O=C(O)c1cn(-c2ccccc2)nc1-c1cccnc1 | 1.9
Cc1ccc(Oc2cc(C)nc(-c3ccccc3O)n2)cc1 | i
Cc1ccc(Oc2ncccc2/C=N/OCc2ccc(Cl)c(Cl)c2)cc1 | i
O=C(CCn1nc(-c2ccc(Cl)cc2)ccc1=O)N1CCN(c2ccccn2)CC1 | 2.6
O=C(Cc1ccc(Br)cc1)NC1CCCCC1 | i
C=CCn1c(N)c(C(=O)OCC)sc1=S | i
CCN(CC)CCNC(=O)Cc1c(C(=O)O)n(CC)c2ccccc12 | i
O=C(O)C1C2C=CC(C2)C1C(=O)NCCCn1ccnc1 (configuration not stated) | i
O=S(=O)(/C=C/c1ccccc1)c1ccccc1 | i
O=C(O)CCc1nn2c3ccccc3nc2n(-c2ccccc2)c1=O | 0.8
Cc1ccc(NC(=O)Cn2cnc3c(=O)n(C)c(=O)n(C)c32)c(C)c1 | 2.0
O=c1[nH]c2cc3c(cc2cc1CN(Cc1cccs1)Cc1nnnn1Cc1ccco1)OCCO3 | 0.6
CC1=C(C(=O)Nc2ccc(C)cc2)C(c2ccc(C)o2)C2=C(CC(C)(C)CC2=O)N1 (configuration not stated) | 2.2
Cc1ccc(C(=O)N(c2ccccc2)C2CC(C)N(C(=O)c3ccco3)c3ccccc32)cc1 (configuration not stated) | 0.3
CCc1ccc(CNCCNCC(C)O)cc1 (configuration not stated) | 0.4
Brc1ccccc1Cn1c(-c2cncs2)nc2ccccc21 | i
O=C(O)c1ccccc1OCCOc1ccccc1 | i
Cc1cc(C(=O)Nc2ccc3c(c2)OCCO3)c(C)o1 | 0.3
Nc1ccc(N2CCCCC2)cc1N1CCCCC1 | 1.3
Cc1nn(C)cc1CNC(=O)Nc1ccc(Cl)c(Cl)c1 | i
CCOC(=O)c1cnc(-n2nc(C)cc2C)nc1Nc1ccccc1OC | 0.3
CCOc1ccc2nc(SCC(=O)Nc3cc4c(cc3C(C)=O)OCO4)[nH]c2c1 | i
O=C(CCC1CCCC1)NCc1ccccn1 | 0.7
Cn1c(=O)c2c(ncn2CC(=O)N2CCN(c3ccccc3F)CC2)n(C)c1=O | 1.2
COc1ccc(C(=O)c2c(C(F)(F)F)oc3c2C(=O)c2ccccc2C3=O)cc1OC | i
Cc1ccc(-c2nc3ccccc3o2)cc1NC(=O)c1ccc2c(c1)OCO2 | i
Cc1c(C(=O)OCCOC(C)C)[nH]c2c1C(=O)CC(C)(C)C2 | 1.3
COc1ccccc1NC(=O)CN1CCN(c2ccc(Cl)cc2)CC1 | 0.8
O=C(CCC(=O)N1CCCc2ccccc21)N1CCN(S(=O)(=O)c2ccccc2)CC1 | 2.5
CCCCn1c(SCc2nnc(-c3ccccc3)o2)nc2c1c(=O)n(C)c(=O)n2C | 1.0
CC(=O)Nc1cccc(C(=O)Oc2cccc(C)c2)c1O | 1.1
CC(C)(C)c1ccc(C2CC2C(=O)N/N=C\c2cc3ccccc3nc2Cl)cc1 (configuration not stated) | i
CC(C)c1nc2sc3c(NCc4ccco4)ncnc3c2c2c1COC(C)(C)C2 | i
CCCc1cc(-c2ccc(O)c(OCC)c2)c(C#N)c(N)n1 | 0.5
Cc1ccc(CC2CC(=O)N(c3nc4ccccc4n3C)C2=O)cc1 (configuration not stated) | 0.3
O=C(CN1C(=O)COc2ccccc21)NCc1ccccn1 | i
CC(=O)c1ccc(N2CCN(C(=O)C3CCCN(S(=O)(=O)c4cnc[nH]4)C3)CC2)cc1 (configuration not stated) | i
Remaining list, next part
SMILES | H5N1 CPE
O=C(CC(NS(=O)(=O)c1ccc(Cl)cc1)c1ccco1)N1CCc2ccccc21 (configuration not stated) | i
CCOc1ccccc1C(=O)NC(CO)C(=O)O (configuration not stated) | i
O=C(NC1CCS(=O)(=O)C1)c1ccc(S(=O)(=O)NCC2CCCO2)cc1 (configuration not stated) | 0.4
CCCCn1cc(C(=O)c2cc(Br)ccc2O)cc(C#N)c1=O | 4.1
O=C(Nc1ccc(NC(=O)c2ccco2)cc1)c1cnccn1 | i
CCOc1ccc(N(CC)C(=O)COc2cc(=O)n(C)c3ccccc23)cc1 | 0.8
CC(C)(C)c1ccc(S(=O)(=O)NCC(=O)Nc2ccc(-c3nc4ccccc4s3)cc2)cc1 | i
COc1ccc(-c2nn(-c3ccccc3)cc2C(=O)Nc2nccs2)cc1 | i
COc1cccc(C(=O)N/N=C(/c2ccccc2)c2ccccn2)c1 | 0.5
COc1cccc(C2=NOC(C(=O)NC(C)(C)C)C2)c1 (configuration not stated) | 1.2
CNc1cnn(-c2ccccc2)c(=O)c1Cl | i
Cc1nc(Nc2ccccc2)[nH]c(=O)c1CCC(C)C | 2.0
CCOC(=O)N1CCN(C(=O)C2CC(c3cc(OC)ccc3OC)=NO2)CC1 (configuration not stated) | 0.5
COc1ccc(-c2cc(=O)c3ccccc3s2)cc1 | i
CCc1ccc(-n2nnnc2SCC(=O)NNC(=O)c2ccco2)cc1 | 0.2
COc1ccccc1N(CC(=O)Nc1ccc2c(c1)OCO2)S(=O)(=O)c1ccccc1 | i
CCOC(=O)c1ccc(S(=O)(=O)N2CCN(C)CC2)cc1 | 1.2
CC(Nc1ccc(Br)cn1)c1cc(Cl)ccc1O (configuration not stated) | 7.4
CCCOc1ccc2c3c(c(=O)oc2c1OCCC)CCCC3 | 3.2
CCCN(c1nc(C)cc(OC)n1)S(=O)(=O)c1ccccc1 | i
CCN1CCN(c2ncc3c(n2)CC(c2ccc(OC)c(OC)c2)CC3=O)CC1 (configuration not stated) | 0.1
COc1ccc(CCC(=O)NCc2cnn(C)c2)cc1 | 1.1
Cc1ccc(-c2cc(C(=O)N/N=C/c3c(C)nn(C)c3C)c3ccccc3n2)cc1C | i
CC(C)(C)NC(=O)C(=O)NNC(=O)c1ccccc1 | 1.6
CN1C(=O)C(CC(N)=O)N(NC(=O)c2ccc(Cl)cc2)C1=S (configuration not stated) | i
CCc1cccc(OCCOCCN2CCCC2)c1 | i
CCCNC(=O)CCc1c(C)nc2nc(-c3cc(OC)cc(OC)c3)nn2c1C | i
CC(=O)C1C(c2cccc(F)c2)NC(=O)NC1(O)C(F)(F)F (configuration not stated) | i
COC(=O)C1CSc2[nH]c(=O)sc2C1c1ccc(OC)c(OC)c1 (configuration not stated) | 1.3
Cc1ccc(S(=O)(=O)CC(=O)Nc2ccc(S(=O)(=O)Nc3onc(C)c3C)cc2)cc1 | 0.6
CC(C)/C=C1\CCCCC1N(C)C(=O)NC(C)C (configuration not stated) | i
CC(=NCC1CCCO1)c1c(O)n(-c2ccc(C)cc2)c(=O)[nH]c1=O (configuration not stated) | 0.5
CC1CC1C(=O)Nc1nc(-c2ccccc2)cs1 (configuration not stated) | i
COc1ccc(S(=O)(=O)N2CCCC2C(=O)Nc2nc3c(s2)CCCC3)cc1 (configuration not stated) | i
Cc1cccc(Oc2ncnc3onc(C)c23)c1C | 0.7
CNc1nc(SCc2ccccc2Cl)nc2c1CCCC2 | 1.1
Cc1cc(C)nc(Sc2ccc3nnnn3n2)n1 | 5.2
O=c1nc(NCc2ccco2)sc2ncccc12 | 1.8
O=C(CSc1nnc(Cc2cc(=O)[nH]c(=O)[nH]2)n1-c1ccc(Cl)cc1)NCC1CCCO1 (configuration not stated) | 1.9
Nc1nnc(SCC(=O)Nc2ccccc2N2CCOCC2)s1 | 1.3
C=CCn1c(O)c(C(C)=NCc2cccnc2)c(=O)[nH]c1=O | i
CCOC(=O)C1=C(N)OC2=C(C(=O)CC(C)(C)C2)C1c1ccco1 (configuration not stated) | 1.2
CC(=O)Nc1ccc(S(=O)(=O)N2CCN(Cc3ccccn3)CC2)cc1 | i
Cn1nnc2cc(C(=O)Nc3cccnc3)ccc21 | i
CCOC(=O)N1CCC(NC(=O)c2cccc3c2C(=O)N(CCOC)C3)CC1 | 0.3
CCN(CC)C(=O)C1CC(=O)N(c2ccc(OC)cc2)C1c1ccc(OC)cc1 (configuration not stated) | 0.1
Cc1c(NC(=O)c2cccc(NC(=O)c3ccco3)c2)cccc1C(=O)O | 0.6
CCC(=Nc1cc(OC)ccc1OC)c1c(O)[nH]c(=O)[nH]c1=O | 1.1
CCC(=O)N1c2ccccc2NC2=C(C(=O)CCC2)C1c1ccccc1 (configuration not stated) | 0.3
COc1ccc(-n2cnc3cc(NCc4cccs4)ccc32)cc1 | i
COc1cccc(-c2nnc(SCC(N)=O)n2-c2ccc(Cl)cc2)c1 | i
Cc1n[nH]c(C)c1S(=O)(=O)N(CC(=O)N1CCc2ccccc21)c1ccc(C(C)C)cc1 | i
Nc1nc2n(n1)C(c1cccs1)CC(c1ccccc1)N2 (configuration not stated) | 0.7
CC(C)OC(=O)CSc1nnc(-c2cccnc2)n1Cc1ccccc1 | 0.9
CCOC(=O)Cn1c(-c2cccnc2Cl)nc2cc(C)c(C)cc21 | 0.1
CSc1ccc(Cl)c(C(=O)NCC(C)C)c1 | 0.3
COc1ccc(C2(O)CCN(C(=O)c3ccc4c(c3)OCO4)CC2)cc1 | i
CC(C)COc1ccc2[nH]c3c(c2c1)CCCC3=O | 1.4
O=C(COc1ccccc1)N1CCN(C2CCCC2)CC1 | i
CCOC(=O)c1ccc(N2C(=O)c3n[nH]c(C)c3C2c2ccc(OC)c(OC)c2)cc1 (configuration not stated) | 5.0
The results go on:
SMILES | H5N1 CPE
O=C(c1ccccc1)c1cn(CC(=O)N2CCCC2)c2ccccc12 | 0.9
Cc1ccc(C(=O)NNC(=O)C2CCN(c3nccc(C)n3)CC2)cc1 | i
COc1ccc(S(=O)(=O)NCc2ccccc2)cc1 | 0.6
O=C1CC(C(=O)O)c2ccccc2N1 (configuration not stated) | i
Cc1ccc(C2CC(c3ccc(C)cc3)n3nc(N)nc3N2)cc1 (configuration not stated) | i
CCC12CN3CC(CC)(CN(C1)C3c1ccc(OC(C)C)cc1)C2=O (configuration not stated) | 0.2
CC(=O)c1ccc(N2CCN(C(=S)Nc3ccccc3)CC2)cc1 | 0.7
COc1cc(C2N(c3ccc(Cl)cc3)C(=O)C3CCCN32)cc(OC)c1OC (configuration not stated) | i
COc1ccccc1N1CCN(C(=O)c2cc(C3CC3)on2)CC1 | 0.2
O=C(C1CCCO1)N1CCN(c2c3c(nc4cc(-c5ccc(F)cc5)nn24)CCC3)CC1 (configuration not stated) | 0.4

Screening data from PubChem.
